# Source: PubChem (Broad Institute)
# CSC inhib – cancer stem cell viability inhibitors, primary screen, luminescence; AID 2717, 2010; inhibition, % at 7.5 µM; cancer stem cell-like cells viability; 300,000 compounds, 1.1% hits;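 active = mean at 75% or more and at least half the replicates too; tested in HMLE shEcad cells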;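 also: 0% = median of negative and 100% = median of positive control wells; the first replicate is given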
# UUG fidelity – modulators of yeast start codon fidelity, primary screen, whole organism, S. cerevisiae, single point, plate reader; S. cerevisiae UUG-firefly luciferase reporter, luminescence/redox ratio; activity score, % at 18.7 µM; 350,000 compounds, 0.13% hits; AID 602363, 2012;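 active = replicate mean at a twofold rise or more, about +100% in these data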;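 also: firefly luciferase made from a UUG start codon reports start codon fidelity; reporter light over untreated wells divided by growth signal over untreated wells; some hits fall short of that in this replicate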
# HIV Env fusion – inhibitors of HIV-1 Env-driven cell-cell fusion, primary screen, HeLa-JRFL effector, CEM21 target cells, luciferase; inhibition, % at 12.3 µM; 360,000 compounds, 1.1% hits;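 active = mean replicate inhibition score of at least 50 and every replicate individually at or above 50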;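 also: 0% = plate neutral controls and 100% = maraviroc near 300 nM; one replicate is shown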
# * = called active by the depositor; nt = not tested or not shown; [ ] = dose if it differs, or a comment.
# The line under a structure holds: CSC inhib	UUG fidelity	HIV Env fusion
1. COc1ccccc1C#Cc1ccc([C@H]2[C@@H](CO)N3CCCCN(C(=O)C4CCCC4)C[C@@H]23)cc1
    nt	-4	nt
2. OC[C@@H]1[C@@H](c2ccc(Br)cc2)[C@@H]2CN(Cc3cncnc3)CCCCN12
    nt	-6	nt
3. CC(C)NC(=O)N1[C@H](CO)[C@@H](c2ccccc2)[C@H]1CN(C)C(=O)c1cccnc1
    nt	1	nt
4. C[C@H]1CN([C@@H](C)CO)C(=O)Cc2cc(NC(=O)NC3CCCCC3)ccc2O[C@H]1CN(C)Cc1ccc(C(=O)O)cc1
    nt	-3	nt
5. O=C(C[C@H]1CC[C@@H]2[C@H](COC[C@@H](O)CN2C(=O)c2cnccn2)O1)NCc1ccc(Cl)cc1
    nt	-9	nt
6. COc1ccc(NC(=O)Nc2ccc3c(c2)[C@@H]2C[C@H](CC(=O)N(C)C)O[C@@H](CO)[C@@H]2O3)cc1
    nt	-2	nt
7. C[C@H]1CN([C@@H](C)CO)C(=O)c2cccc(NS(=O)(=O)c3ccccc3)c2O[C@@H]1CN(C)C(=O)NC1CCCCC1
    nt	7	nt
8. O=S(=O)(c1ccccc1)N1CC[C@@H]2[C@@H](CO)Nc3ccc(C#Cc4cccc(F)c4)cc3[C@@H]21
    nt	-16	nt
9. COc1ccc(S(=O)(=O)N(C)C[C@@H]2Oc3c(NC(=O)C4CCCCC4)cccc3C(=O)N([C@@H](C)CO)C[C@@H]2C)cc1
    nt	8	nt
10. O=C(Nc1ccccc1F)N1CCCCN2[C@H](CO)[C@H](c3ccc(C#Cc4ccccc4)cc3)[C@H]2C1
    nt	24	nt
11. Cn1c(SCc2cccc([N+](=O)[O-])c2)nc2ccccc2c1=O
    26	-19	nt
12. CCCCC(CC)CN=C(N)NC(N)=NCCCCCCN=C(N)NC(N)=NCC(CC)CCCC (stereo unspecified)
    103*	-62	nt
13. Cc1ccccc1-c1nnc(SCC(=O)N(C)C2CCS(=O)(=O)C2)n1C (stereo unspecified)
    -18	3	nt
14. O=C(c1cc(C2CC2)nn1-c1ccccc1)N1CCN(Cc2c(F)cccc2Cl)CC1
    67	-7	nt
15. COc1ccc2c(c1)CCCC21NC(=O)N(CC(=O)N2CC(C)OC(C)C2)C1=O (stereo unspecified)
    2	-12	nt
16. CCCC(=O)Nc1ccc2c(c1)OC[C@H](C)N(C(=O)c1cccnc1)C[C@@H](C)[C@H](OC)CN(C)C2=O
    nt	nt	-9[16.7 µM]
17. C[C@H]1CN([C@@H](C)CO)C(=O)c2cc(NS(=O)(=O)c3cn(C)cn3)ccc2O[C@H]1CN(C)C(=O)Nc1ccc(F)cc1
    nt	nt	-16[16.7 µM]
18. COc1ccc(NC(=O)Nc2ccc3c(c2)CC(=O)N([C@H](C)CO)C[C@@H](C)[C@H](CN(C)S(=O)(=O)c2ccc(Cl)cc2)O3)cc1
    nt	nt	8[16.7 µM]
19. CCCNC(=O)C[C@H]1CC[C@H]2[C@@H](COC[C@@H](O)CN2C(=O)Nc2ccc(Cl)c(Cl)c2)O1
    nt	nt	4[16.7 µM]
20. CCCC#Cc1ccc2c(c1)O[C@@H](CN(C)C(=O)Nc1ccccc1F)[C@H](C)CN([C@@H](C)CO)S2(=O)=O
    nt	nt	-25[16.7 µM]
21. CCC(=O)Nc1ccc2c(c1)C(=O)N(C)C[C@H](OC)[C@@H](C)CN(Cc1ccncc1)[C@@H](C)CO2
    nt	nt	-5[16.7 µM]
22. CN1[C@H](C(=O)NCC(F)(F)F)[C@@H](CO)[C@@H]2Cn3c(ccc(-c4ccccc4F)c3=O)[C@@H]21
    nt	nt	-5[16.7 µM]
23. O=C(NCc1ccccc1)[C@H]1CCCN1C(=O)[C@H]1CCCN1C(=O)N1CCCCC1
    nt	nt	-17
24. CO[C@H]1CC[C@@H]2CCN(C)C(=O)[C@H](C)[C@@H](OC)CN(C)C(=O)c3cccc(C#N)c3OC[C@@H]1O2
    nt	nt	3[16.7 µM]
25. C[C@H](CO)N1C[C@H](C)[C@@H](CN(C)S(C)(=O)=O)Oc2ccc(NC(=O)CCCN(C)C)cc2C1=O
    nt	nt	-2[16.7 µM]
26. CO[C@H]1CN(C)C(=O)c2cc(NC(=O)C3CCCCC3)ccc2OC[C@@H](C)NC[C@H]1C
    nt	nt	-10[16.7 µM]
27. COc1ccc(C2CC(=O)C(c3ccc(C(F)(F)F)cc3)=CN2Cc2ccccc2)cc1 (stereo unspecified)
    nt	nt	-20
28. C[C@@H]1CN([C@@H](C)CO)S(=O)(=O)c2ccc(C#CC(C)(C)O)cc2O[C@H]1CN(C)C(=O)C1CC1
    nt	nt	-24[16.7 µM]
29. COc1ccc(NC(=O)N(C)C[C@H]2Oc3ccc(N(C)C)cc3CC(=O)N([C@@H](C)CO)C[C@@H]2C)cc1
    nt	nt	-8[16.7 µM]
30. COc1ccccc1-c1cnc2c(c1)C(=O)N([C@H](C)CO)C[C@@H](C)[C@H](CN(C)C(=O)c1cccnc1)O2
    nt	nt	8[16.7 µM]
31. COC(=O)C[C@@H]1C[C@@H]2c3cc(NC(=O)c4ccc5c(c4)OCO5)ccc3O[C@@H]2[C@H](CO)O1
    nt	nt	17[16.7 µM]
32. Nc1[nH]c(C(=O)c2ccccc2)c(-c2ccccn2)c1C(=O)c1c[nH]c2ccccc12
    nt	nt	-2
33. COC(=O)c1cc2c(c3c4cc(OC)ccc4n(S(=O)(=O)c4ccc(OC)cc4)c13)C(=O)N(C)C2
    nt	nt	-12
34. COC(=O)C1=C(C)N(Cc2ccc(Cl)cc2)C(=S)NC1c1cccc(OC)c1 (stereo unspecified)
    nt	nt	27
35. O=[N+]([O-])c1ccc(COc2cccc(CO)c2)cc1
    nt	nt	-33
36. CCCNC(=O)Nc1ccc2c(c1)OC[C@H](C)N(CCC(F)(F)F)C[C@@H](C)[C@H](OC)CN(C)C2=O
    nt	nt	-28[16.7 µM]
37. CCC(=O)N1[C@H](C(=O)N2CCCCC2)[C@@H](CO)[C@@H]2Cn3c(cccc3=O)[C@@H]21
    nt	nt	-14[16.7 µM]
38. C[C@H]1CN([C@@H](C)CO)S(=O)(=O)c2ccc(-c3ccccc3)cc2O[C@@H]1CN(C)C(=O)C1CCC1
    nt	nt	17[16.7 µM]
39. COc1ccc(-c2ccc3c(n2)CCCN3S(=O)(=O)c2ccc(C#N)cc2)cc1
    nt	nt	-18
40. CC(C)NC(=O)N(C)C[C@H]1OCCCC[C@H](C)Oc2ccc(NC(=O)Cc3ccccc3)cc2C(=O)N([C@H](C)CO)C[C@H]1C
    nt	nt	4[16.7 µM]
41. CCCNC(=O)N1C[C@H](C)[C@H](OC)CN(C)C(=O)c2ccc(NC(C)=O)cc2OC[C@H]1C
    nt	nt	-10[16.7 µM]
42. C[C@H]1CN([C@@H](C)CO)C(=O)c2cc(NS(C)(=O)=O)ccc2O[C@@H]1CN(C)C(=O)Nc1cccc2ccccc12
    nt	nt	1[16.7 µM]
43. O=C(C[C@@H]1CC[C@@H]2[C@H](COC[C@H](O)CN2Cc2cccc(Cl)c2)O1)N1CCCCC1
    nt	nt	24[16.7 µM]
44. COC(=O)C1=C(C)N(C)C(=NCc2ccc3c(c2)OCO3)NC1c1ccc(Cl)cc1 (stereo unspecified)
    nt	nt	-4
45. Cc1ccc2nc(-c3ccco3)c(Cc3ccsc3)n2c1
    nt	nt	-40

# Shown bar-delimited: 2 of the compounds above
nr | mol | CSC inhib | UUG fidelity | HIV Env fusion
37 | CCC(=O)N1[C@H](C(=O)N2CCCCC2)[C@@H](CO)[C@@H]2Cn3c(cccc3=O)[C@@H]21 | nt | nt | -14[16.7 µM]
38 | C[C@H]1CN([C@@H](C)CO)S(=O)(=O)c2ccc(-c3ccccc3)cc2O[C@@H]1CN(C)C(=O)C1CCC1 | nt | nt | 17[16.7 µM]

# Additional results follow.
# The line under a structure holds: CSC inhib	UUG fidelity	HIV Env fusion
46. CN(Cc1ccccc1)C(=O)c1cccc(NC(=O)Cc2ccc(NC(=O)C3CCCN(S(=O)(=O)c4cccc([N+](=O)[O-])c4)C3)cc2)c1 (stereo unspecified)
    nt	nt	4
47. COC(=O)C1=C(C)N(CC(C)C)C(=S)NC1c1cccc(OC)c1 (stereo unspecified)
    nt	nt	1
48. C[C@H]1CN([C@@H](C)CO)C(=O)c2ccccc2-c2ccccc2CO[C@H]1CN(C)Cc1ccncc1
    nt	nt	15[16.7 µM]
49. CN1C(=O)c2cc(NS(=O)(=O)c3ccccc3F)ccc2OC[C@H]2O[C@@H](CC(=O)NC3Cc4ccccc4C3)CC[C@@H]21
    nt	nt	9[16.7 µM]
50. Cc1noc(C)c1S(=O)(=O)Nc1ccc2c(c1)C(=O)N([C@@H](C)CO)C[C@@H](C)[C@H](CN(C)Cc1ccc(C(F)(F)F)cc1)OCCCC[C@H](C)O2
    nt	nt	27[16.7 µM]
51. COc1ccc(NC(=O)Nc2ccc3c(c2)CC(=O)N([C@H](C)CO)C[C@@H](C)[C@H](CN(C)S(=O)(=O)c2ccccc2)O3)cc1
    nt	nt	-70[16.7 µM]
52. COc1ccc(CN(C)C[C@H]2Oc3ccc(NC(=O)Cc4ccccc4)cc3CC(=O)N([C@@H](C)CO)C[C@@H]2C)cc1
    nt	nt	-1[16.7 µM]
53. O=C1N[C@H](Cc2ccccc2)COCc2cn(nn2)CC[C@H]1Cc1ccccc1
    nt	nt	-3[16.7 µM]
54. Cc1cccc(C)c1OCc1nnc(SCC(=O)O)n1-c1c(C)cccc1C
    nt	nt	0
55. CCCC(=O)Nc1ccc2c(c1)OC[C@H](C)N(CC1CCOCC1)C[C@@H](C)[C@H](OC)CN(C)C2=O
    nt	nt	-8[16.7 µM]
56. C[C@@H]1CN([C@H](C)CO)C(=O)c2cc(C#C[C@@H](C)O)cnc2O[C@H]1CN(C)CC1CCOCC1
    nt	nt	2[16.7 µM]
57. O=C(C(=O)N1CCN(S(=O)(=O)c2ccc(C(F)(F)F)cc2)CC1)c1cccc(C(F)(F)F)c1
    nt	nt	2
58. O=C(O)C[C@@H]1C[C@H]2c3cc(NC(=O)Nc4ccc(C(F)(F)F)cc4)ccc3O[C@H]2[C@@H](CO)O1
    nt	nt	-4[16.7 µM]
59. COc1cccc(NC(=O)C[C@H]2CC[C@@H]3[C@@H](COc4ccc(NC(=O)C5CCOCC5)cc4C(=O)N3C)O2)c1
    nt	nt	21[16.7 µM]
60. CCCCS(=O)(=O)N1CCCc2nc(CC)c(CC)cc21
    nt	nt	-7
61. O=C(Nc1ccccc1F)N[C@@H]1CC[C@@H](CCNC(=O)C2CCCCC2)O[C@H]1CO
    nt	nt	-14[16.7 µM]
62. C/C=C/c1ccc([C@H]2[C@@H](CO)N(C(=O)C3CCC3)C23CN(S(=O)(=O)CC)C3)cc1
    nt	nt	11[16.7 µM]
63. CNC[C@H]1Oc2ccc(NC(=O)Nc3ccccc3)cc2C(=O)N([C@H](C)CO)C[C@@H]1C
    nt	nt	20[16.7 µM]
64. Cc1ccc(S(=O)(=O)Nc2ccc3c(c2)C(=O)N([C@H](C)CO)C[C@@H](C)[C@@H](CN(C)S(=O)(=O)c2ccc(F)cc2)O3)cc1
    nt	nt	-3[16.7 µM]
65. CC=Cc1ccc2n(c1=O)C[C@@H]1[C@@H](CO)[C@H](C(=O)Nc3ccc(-c4ccccc4)cc3)[C@H]2N1C(=O)CC (mixture of isomers)
    nt	nt	10[16.7 µM]
66. C/C=C/c1cnc2c(c1)C(=O)N([C@@H](C)CO)C[C@H](C)[C@@H](CN(C)C(=O)Nc1ccc(F)cc1)O2
    nt	nt	12[16.7 µM]
67. O=C(NCc1ccccc1)[C@@H]1CCCN1C(=O)[C@H]1CCCN1C(=O)c1ccc(F)cc1
    nt	nt	-13
68. COC(=O)c1cc2c(c3c4cc(F)ccc4n(S(=O)(=O)c4ccc(OC)cc4)c13)C(=O)N(C)C2
    nt	nt	1
69. CC(=O)N(C)C[C@@H]1Oc2cc(C3=CCCCC3)ccc2S(=O)(=O)N([C@H](C)CO)C[C@H]1C
    nt	nt	6[16.7 µM]
70. C[C@@H]1CN([C@H](C)CO)C(=O)c2cc(NC(=O)CCCN(C)C)ccc2O[C@H]1CN(C)Cc1ccc(C(=O)O)cc1
    nt	nt	-3[16.7 µM]
71. O=C(c1cccc(F)c1)N1CC[C@H]2[C@H](CO)Nc3ccc(C#Cc4ccccc4)cc3[C@H]21
    nt	nt	-20[16.7 µM]
72. O=C(C[C@@H]1C[C@H]2c3cc(NS(=O)(=O)c4ccc(F)cc4)ccc3O[C@H]2[C@@H](CO)O1)N1CCc2ccccc2C1
    nt	nt	-1[16.7 µM]
73. CN(C)C(=O)C[C@@H]1C[C@H]2c3cc(NC(=O)Nc4ccc(F)cc4)ccc3O[C@H]2[C@@H](CO)O1
    nt	nt	16[16.7 µM]
74. COc1ccc(CN(C)C[C@H]2Oc3ccc(NS(=O)(=O)c4c(C)noc4C)cc3CC(=O)N([C@H](C)CO)C[C@@H]2C)cc1
    nt	nt	9[16.7 µM]
75. CCCC(=O)Nc1ccc2c(c1)C(=O)N(C)C[C@H](OC)[C@@H](C)CN(CCC(F)(F)F)[C@H](C)CO2
    nt	nt	19[16.7 µM]
76. C[C@@H]1CN([C@H](C)CO)C(=O)CCCn2cc(nn2)CO[C@@H]1CN(C)C
    nt	nt	-10[16.7 µM]
77. Cc1ccc(S(=O)(=O)Nc2ccc3c(c2)CC(=O)N([C@H](C)CO)C[C@H](C)[C@H](CN(C)Cc2ccc(C(F)(F)F)cc2)O3)cc1
    nt	nt	29[16.7 µM]
78. CCN1[C@@H]2Cn3c(ccc(/C=C/c4ccccc4)c3=O)[C@H]1[C@@H](C(=O)N1CCCCC1)[C@@H]2CO
    nt	nt	-2[16.7 µM]
79. Cc1ccc(S(=O)(=O)NCc2ccc3c(c2)OCO3)cc1
    nt	nt	13

# A portion of the library (hit frequency here may not be typical).
